D2 agonist – D2 dopamine receptor (human) agonism. activation, % at 2 µM. HEK293 T-REx D2 cells, calcium flux agonist mode. hit rate 0.53% among 340,000. P14416;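 active = activation over 3 SD above normal in the single-dose calcium agonist read, cut at about 30% in these data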; also: 0% is about no effect
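HEK293 Trex D2 cells, tetracycline-induced, o/n 30 C 5% CO2; no-wash Ca dye, RT 30–90 min; 10-cycle baseline, 23 nl cpd added, kinetic Ca read 180 s; agonist hits = positive Ca response.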
D1 agonist – agonists of human D1 dopamine receptor | P21728 | HEK293 T-REx D1 cells, calcium flux, agonist mode | activation, % at 2 µM | hit rate 1% among 360,000 | AID 504660; in the data active = activation above about 30%; also: 0% is about no effect
Target sequence (P21728 whole entry, looked up): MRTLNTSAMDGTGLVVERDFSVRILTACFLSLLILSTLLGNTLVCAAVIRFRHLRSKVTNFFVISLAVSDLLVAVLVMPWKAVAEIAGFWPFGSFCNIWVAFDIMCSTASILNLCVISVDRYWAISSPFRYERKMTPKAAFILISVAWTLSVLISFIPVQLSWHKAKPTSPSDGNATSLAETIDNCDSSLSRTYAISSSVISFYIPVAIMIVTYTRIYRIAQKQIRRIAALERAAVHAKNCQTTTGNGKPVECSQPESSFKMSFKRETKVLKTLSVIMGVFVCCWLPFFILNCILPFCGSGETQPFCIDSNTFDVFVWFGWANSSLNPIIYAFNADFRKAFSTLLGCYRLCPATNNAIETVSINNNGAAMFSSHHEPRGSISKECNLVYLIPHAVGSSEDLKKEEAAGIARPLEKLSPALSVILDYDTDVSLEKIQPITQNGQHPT
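Agonism was scored from calcium flux recorded over 180 s (1 read/s) after pintool compound addition, following a 10-cycle baseline. Cells were inducible force-coupled HEK293 TREx D1, plated overnight at 30 C and loaded with no-wash calcium dye.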
D2 PAM – positively modulates the human D2 dopamine receptor allosterically; P14416; HEK293 T-REx D2, calcium flux, EC20 dopamine potentiation; potentiation, % at 10 µM; hit rate 0.34% among 340,000; AID 485347;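 active = potentiation over 3 SD above the plate norm, cut at about 30% in these data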; also: 0% is about no effect
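Tetracycline-induced HEK293 T-REx cells force-coupled to calcium signalling expressed D2; compounds were pin-added after a 10 s baseline, read kinetically 180 s, then an EC20 dopamine challenge followed with a further 180 s calcium read.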
TRHR PAM – allosteric enhancers of human TRH receptor; TRHR cells, fluo-8 calcium fluorescence, EC20 TRH enhancement; enhancement, % at 2 µM; hit rate 0.66% among 360,000; P34981; AID 493056; in the data active = enhancement above about 30%; also: 0% is about no effect
Target sequence (P34981 whole entry, looked up): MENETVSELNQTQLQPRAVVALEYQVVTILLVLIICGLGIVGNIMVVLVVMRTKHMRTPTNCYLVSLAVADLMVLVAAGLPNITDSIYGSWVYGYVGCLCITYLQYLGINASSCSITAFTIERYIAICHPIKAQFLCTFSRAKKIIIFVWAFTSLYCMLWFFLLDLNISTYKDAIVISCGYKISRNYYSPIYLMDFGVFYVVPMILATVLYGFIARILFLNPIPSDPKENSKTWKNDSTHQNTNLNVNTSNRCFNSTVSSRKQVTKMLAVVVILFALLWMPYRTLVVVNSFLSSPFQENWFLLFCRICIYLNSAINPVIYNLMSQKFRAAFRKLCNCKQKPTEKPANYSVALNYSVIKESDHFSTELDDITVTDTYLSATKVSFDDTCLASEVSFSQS
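Enhancer read-out: after compound pinning and an initial kinetic agonist-mode read, an EC20 of TRH (10 nM final) was injected and fluo-8 calcium signal (Ex 480/Em 530) followed at 1 s/cycle for 100 cycles in TRHR-expressing cells.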
D1 antagonist – blocks dopamine activation of the human D1 receptor. hit rate 3.2% among 360,000. HEK293 TREx D1 cells, calcium flux, dopamine EC80; stronger effect = lower value. activity change, negative = inhibition, % at 10 µM. P21728. AID 504652; in the data active = activity change below about -30%; also: % is scaled to controls: 0 for no effect and ±100 for the full control effect
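Tetracycline-induced HEK293 Trex D1 cells, force-coupled to calcium, dye-loaded; compounds added and read 180 s, then EC80 dopamine added and calcium flux tracked kinetically another 180 s.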
D2 antag – antagonizes the human D2 dopamine receptor | inhibition, % at 10 µM | hit rate 2% among 340,000 | AID 485344 | HEK293 TREx D2 cells, calcium flux, dopamine EC80 | P14416; in the data active = inhibition above about 30%; also: 0% is about no effect
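Dopamine at EC80 is the agonist stimulus; test compounds precede it by 180 s. Calcium flux read kinetically in a force-coupled, inducible HEK293 T-REx D2 cell line.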
D1 PAM – potentiators of human D1 dopamine receptor; AID 504651; potentiation, % at 10 µM; HEK293 TREx D1 cells, calcium flux, dopamine EC20 potentiation; hit rate 0.036% among 360,000; P21728; in the data active = potentiation above about 30%; also: 0% is about no effect
The depositor's hits bear a star; · = not tested or not shown; & = joins results of further samples.

Value order: D2 agonist	D1 agonist	D2 PAM	TRHR PAM	D1 antagonist	D2 antag	D1 PAM
1: CC(C)(C)C(=O)C1=C(O)C(=O)N(Cc2ccccc2)C1c1ccccc1F (stereo not drawn)
 : -0.9	54*	-8	6	-13	3	-6
2: O=C(CSc1ccc2nnc(CCNC(=O)c3ccccc3)n2n1)Nc1ccccc1F
 : -0.1	4	2	-3	15	7	-1
3: CCN(CC)c1ccc(C(=O)c2cnc(/N=C/N(C)C)s2)cc1
 : 2.1	7	13	1	0	1	9
4: CCOC(=O)c1c(NC(=O)CS(=O)(=O)c2ccc(C)cc2)sc2c1CCC(C)C2 (stereo not drawn)
 : -0.4	3	15	1	·	·	2
5: CN(Cc1ccccc1)S(=O)(=O)c1ccc(F)c(C(=O)Nc2cccc(Cl)c2Cl)c1
 : -0.5	-3	-3	0	-12	·	-2
6: CCc1ccc(Nc2cc(C(=O)NCCCN(C)c3ccccc3)c3ccccc3n2)cc1
 : 0.6	0	-3	-2	4	·	0
7: COc1ccc(-n2c(=S)[nH]c3c(oc4ccccc43)c2=O)cc1
 : 1.2	-1	1	1	2	7	-4
8: CCCn1c(N)c(C(=O)CSc2nc3ncc(Cl)cc3[nH]2)c(=O)n(C)c1=O
 : -0.4	1	-4	-2	-2	0	-2
9: CC(C)NC(=O)CC(=O)NN=C1CCCCC1
 : -0.7	2	2	-5	23	2	0
10: Cc1cc(C)c2c(NC(=O)c3ccccc3Cl)c(C(=O)Nc3ccc(C)c(C)c3)sc2n1
 : -0.2	0	11	-3	-14	·	3
11: COc1ccc(C(=O)N2CCC(n3c(C)nc4cc(F)ccc43)CC2)cc1
 : 0.4	3	2	6	2	-4	-15
12: S=c1nc(-c2ccccc2)n(-c2ccccc2)[nH]1
 : 0.1	1	9	4	4	0	5
13: Cc1ccc(CNC(=O)CSc2nc3n[nH]c(C)c3c(=N)n2-c2ccccc2Cl)cc1
 : 0.1	1	14	-2	-5	·	-2
14: COC(=O)c1c(NC(=O)CN2CCN(Cc3ccc4c(c3)OCO4)CC2)sc(C)c1C
 : 0.6	2	-19	-6	19	7	-7
15: Cc1cc2ccccc2n2c(SCC(=O)NCC3CCCO3)nnc12 (stereo not drawn)
 : ·	0	·	-8	-5	·	3
16: CCOC(=O)N1CCC(NC(=O)c2ccc3c(c2)N=C(C)c2c(C)ccc(C)c2S3)CC1
 : -1.0	9	6	3	0	6	1
17: COc1cccc(-c2cc(C(=O)NCC3CCCO3)c3cc(Br)cc(C)c3n2)c1 (stereo not drawn)
 : 1.5	7	-4	-5	-7	-7	-2
18: O=C(COc1ccccc1)NC(=S)Nc1ccc2c3c(cccc13)CC2
 : 0.1	4	15	-7	-2	3	-4
19: COc1ccc(C2/C(=C(/O)c3ccccc3)C(=O)C(=O)N2C)cc1OC (stereo not drawn)
 : -3.7	3	5	-2	4	-14	-10
20: COc1ccc(-c2ccc(SCC(=O)Nc3nnc(C)s3)nn2)cc1
 : -0.5	0	3	4	-16	20	-2

The list goes on.
Value order: D2 agonist	D1 agonist	D2 PAM	TRHR PAM	D1 antagonist	D2 antag	D1 PAM
21: COc1ccc(OC)c(NC(=O)CSc2ccc(-c3sc(C)nc3C)nn2)c1
 : 0.2	4	·	1	2	·	0
22: Cc1oc(-c2ccc(-c3ccccc3)cc2)nc1CN(C)C1CCOC1 (stereo not drawn)
 : -0.1	5	-17	-8	-18	-28	-8
23: CC1(C)CC(=O)c2cc(C(=O)Nc3ccc(Br)cc3)c(=O)[nH]c2C1
 : 0.1	1	-6	4	-5	·	0
24: Cc1cccc(NC(=O)c2cc3c(=O)n4cccc(C)c4nc3s2)c1C
 : ·	-1	-2	-17	8	·	0
25: COc1cc2nc(=S)n(CCCN3CCOCC3)c(N)c2cc1OC
 : 1.4	5	14	-1	-9	-3	2
26: CCOC(=O)N1CCN(C(=O)CN(C2CCCCC2)S(C)(=O)=O)CC1
 : 0.7	1	9	13	3	-4	6
27: CCOc1ccc(NC(=O)CSc2ncnc3c2sc2ccccc23)cc1
 : -0.5&0.2	2&1	3&18	0&4	1&-11	0	0&-2
28: O=C1CC(C(=O)N2CCCc3ccccc32)CN1c1ccc(Cl)cc1 (stereo not drawn)
 : 0.5	8	-7	-3	-5	-17	-7
29: Cc1ccc(NC(=O)CSc2nc(-c3ccc(F)cc3)cc(C(F)(F)F)c2C#N)cc1
 : 2.4	17	10	2	11	·	1
30: Cn1c(=O)c2sccc2n2c(CCCC(=O)Nc3ccc(F)c(F)c3)nnc12
 : -0.5	3	22	-2	-1	·	3
31: COc1ccc(CNc2nc3c(c(=O)n(Cc4ccc(Cl)cc4)c(=O)n3C)n2C)cc1
 : -0.3	2	9	7	-4	-3	-4
32: Cc1ccc2c(c1)c(=O)c1ccccc1n2CCCC(=O)Nc1c(F)cccc1F
 : -0.6	-2	2	5	-9	·	0
33: COC(=O)C1C(O)=C(C=Nc2ccccc2)C(=O)CC1(C)C (stereo not drawn)
 : -1.2	1	2	-4	-19	-12	-5
34: Cc1nc2sc3c(c2c2nnc(SCC(=O)NCc4ccco4)n12)CCCC3
 : -0.1	1	6	0	2	·	-4
35: Cn1c(=NC(=O)c2ccc(S(=O)(=O)N3CCCC3)cc2)sc2cc(F)ccc21
 : 0.0	2	7	9	0	·	-2
36: COc1ccccc1NC(=S)N1CC(C)(C)C1=O
 : -0.2	2	7	-4	8	10	3
37: COc1ccc(-c2ccc3c(N)c(C(=O)NCc4ccc(Cl)cc4)sc3n2)cc1
 : -0.6	1	3	1	-18	·	-2
38: Cc1ccc(-n2c(=S)[nH]c3c(oc4ccccc43)c2=O)cc1
 : 0.5	2	-3	0	24	15	-2
39: CCOC(=O)N1CCN(C(=O)Nc2ccc3nc(C)sc3c2)CC1
 : -0.6	0	-1	-2	-6	22	1
40: O=c1[nH]c(=S)c2c(n1-c1ccccc1)CCC2
 : 0.4	1	3	-9	-10	4	1

The results go on:
Abbreviations: A = D2 agonist; B = D1 agonist; C = D2 PAM; D = TRHR PAM; E = D1 antagonist; F = D2 antag; G = D1 PAM
(41) Cn1c(=O)c2c(SCC(=O)NCC3CCCO3)nc(CC(C)(C)C)nc2n(C)c1=O (stereo not drawn)
  A: -0.5	B: 3	C: 10	D: 23	E: 13	F: 9	G: 1
(42) Cc1nc(N2CCN(C(=O)c3ccco3)CC2)c2c3c(sc2n1)CCC3
  A: 0.5	B: 2	C: 0	D: 6	E: 1	F: 5	G: -5
(43) CCOc1ccc(C2C(C(=O)c3ccc(C)o3)=C(O)C(=O)N2Cc2cccnc2)cc1 (stereo not drawn)
  A: -2.1	B: 1	C: 7	D: 9	E: -4	F: 0	G: 13
(44) COc1cccc(C2/C(=C(/O)c3ccc4c(c3)OCO4)C(=O)C(=O)N2CCN2CCOCC2)c1 (stereo not drawn)
  A: 0.3	B: 3	C: 6	D: 1	E: 8	F: 17	G: 2
(45) O=S(=O)(c1ccccc1)c1nnn2c1nc(NCc1ccc(Cl)cc1)c1sccc12
  A: 0.4	B: 0	C: -2	D: 28	E: -34*	F: ·	G: -5
(46) COCCNC(=O)c1sc2ncn(CC(=O)N3CCCCC3)c(=O)c2c1C
  A: 0.5	B: 3	C: -9	D: -3	E: 0	F: 5	G: -4
(47) CCCCCCN=CC1=C(O)C(C(=O)OC)C(C)(C)CC1=O (stereo not drawn)
  A: -0.1	B: 0	C: -1	D: 10	E: 9	F: 5	G: 1
(48) CCOc1ccc(NC(=O)CSc2nnc(Cn3cnc([N+](=O)[O-])n3)n2CC)cc1
  A: -0.5	B: 2	C: 0	D: 1	E: -38*	F: -9	G: -14
(49) c1ccc(-c2nc(NCC3CCCO3)c3ccccc3n2)nc1 (stereo not drawn)
  A: -0.5	B: 0	C: -7	D: -1	E: 11	F: -1	G: -6
(50) CCOC(=O)CSc1nnc(NCC(=O)OC(C)C)c(=O)[nH]1
  A: 1.6	B: 1	C: -10	D: -4	E: 9	F: -1	G: -3
(51) CCCOc1ccc(/C(O)=C2\C(=O)C(=O)N(c3ccccn3)C2c2ccccc2F)cc1C (stereo not drawn)
  A: -0.2	B: 0	C: 0	D: -1	E: -4	F: 6	G: -2
(52) COc1cc2cc(C#N)c(SCC(=O)Nc3cc(C)on3)nc2cc1OC
  A: 7.8	B: 1	C: ·	D: -2	E: -23	F: 6	G: -10
(53) COc1cc(C)c(S(=O)(=O)NCc2ccc3c(c2)OCO3)cc1C
  A: -0.4	B: 2	C: -19	D: 1	E: 9	F: 32*	G: -5
(54) CC1Cc2cc(/C(O)=C3/C(=O)C(=O)N(CCCn4ccnc4)C3c3ccc(F)cc3)ccc2O1 (stereo not drawn)
  A: 0.7	B: 4	C: -2	D: -3	E: 1	F: 44*	G: 8
(55) Cc1cc2c(cc1S(=O)(=O)N(CCN(C)C)Cc1ccco1)OCC(=O)N2
  A: 0.9	B: 4	C: 10	D: 2	E: -5	F: ·	G: -4
(56) Cn1c(=O)c2sccc2n2c(CCC(=O)NCc3ccc(F)cc3)nnc12
  A: -0.1	B: 1	C: ·	D: -1	E: -7	F: ·	G: 1
(57) Cc1cccc(N2C(=O)C(O)=C(C(=O)c3cccs3)C2c2ccc(Cl)cc2)n1 (stereo not drawn)
  A: -1.1	B: 2	C: -1	D: 1	E: 0	F: -11	G: 0

One compound at a time (already shown). Screens in order: D2 agonist | D1 agonist | D2 PAM | TRHR PAM | D1 antagonist | D2 antag | D1 PAM
Profile of CCCn1c(N)c(C(=O)CSc2nc3ncc(Cl)cc3[nH]2)c(=O)n(C)c1=O : -0.4 | 1 | -4 | -2 | -2 | 0 | -2
Profile of COc1ccccc1NC(=S)N1CC(C)(C)C1=O : -0.2 | 2 | 7 | -4 | 8 | 10 | 3

Entries from the list above containing an aryl methoxy group:
Abbreviations: A = D2 agonist; B = D1 agonist; C = D2 PAM; D = TRHR PAM; E = D1 antagonist; F = D2 antag; G = D1 PAM
(7) COc1ccc(-n2c(=S)[nH]c3c(oc4ccccc43)c2=O)cc1
  A: 1.2	B: -1	C: 1	D: 1	E: 2	F: 7	G: -4
(11) COc1ccc(C(=O)N2CCC(n3c(C)nc4cc(F)ccc43)CC2)cc1
  A: 0.4	B: 3	C: 2	D: 6	E: 2	F: -4	G: -15
(17) COc1cccc(-c2cc(C(=O)NCC3CCCO3)c3cc(Br)cc(C)c3n2)c1 (stereo not drawn)
  A: 1.5	B: 7	C: -4	D: -5	E: -7	F: -7	G: -2
(19) COc1ccc(C2/C(=C(/O)c3ccccc3)C(=O)C(=O)N2C)cc1OC (stereo not drawn)
  A: -3.7	B: 3	C: 5	D: -2	E: 4	F: -14	G: -10
(20) COc1ccc(-c2ccc(SCC(=O)Nc3nnc(C)s3)nn2)cc1
  A: -0.5	B: 0	C: 3	D: 4	E: -16	F: 20	G: -2
(21) COc1ccc(OC)c(NC(=O)CSc2ccc(-c3sc(C)nc3C)nn2)c1
  A: 0.2	B: 4	C: ·	D: 1	E: 2	F: ·	G: 0
(25) COc1cc2nc(=S)n(CCCN3CCOCC3)c(N)c2cc1OC
  A: 1.4	B: 5	C: 14	D: -1	E: -9	F: -3	G: 2
(31) COc1ccc(CNc2nc3c(c(=O)n(Cc4ccc(Cl)cc4)c(=O)n3C)n2C)cc1
  A: -0.3	B: 2	C: 9	D: 7	E: -4	F: -3	G: -4
(36) COc1ccccc1NC(=S)N1CC(C)(C)C1=O
  A: -0.2	B: 2	C: 7	D: -4	E: 8	F: 10	G: 3
(37) COc1ccc(-c2ccc3c(N)c(C(=O)NCc4ccc(Cl)cc4)sc3n2)cc1
  A: -0.6	B: 1	C: 3	D: 1	E: -18	F: ·	G: -2
(44) COc1cccc(C2/C(=C(/O)c3ccc4c(c3)OCO4)C(=O)C(=O)N2CCN2CCOCC2)c1 (stereo not drawn)
  A: 0.3	B: 3	C: 6	D: 1	E: 8	F: 17	G: 2
(52) COc1cc2cc(C#N)c(SCC(=O)Nc3cc(C)on3)nc2cc1OC
  A: 7.8	B: 1	C: ·	D: -2	E: -23	F: 6	G: -10
(53) COc1cc(C)c(S(=O)(=O)NCc2ccc3c(c2)OCO3)cc1C
  A: -0.4	B: 2	C: -19	D: 1	E: 9	F: 32*	G: -5

Bioassay records: PubChem, National Center for Advancing Translational Sciences (NCATS)

Only part of the results is shown. The share of hits here may be higher or lower than overall.
